RGS16-Gao HTS: modulates binding between human RGS16 and Galphao. O15492+P09471. bead-based flow cytometry RGS16-Galphao binding, fluorescence; actives lie on both sides. binding response (% of control), % at 10 µM. hit rate 0.38% among 220,000. AID 1441;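 active = below 25% or above 175%, edge rows of some plates excepted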;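 also: Galphao activated by GDP with aluminum fluoride before binding; 100% = wells without compound and 0% = beads without RGS; some results beyond the cut were filed as inactive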
Target sequence (O15492 whole entry, looked up): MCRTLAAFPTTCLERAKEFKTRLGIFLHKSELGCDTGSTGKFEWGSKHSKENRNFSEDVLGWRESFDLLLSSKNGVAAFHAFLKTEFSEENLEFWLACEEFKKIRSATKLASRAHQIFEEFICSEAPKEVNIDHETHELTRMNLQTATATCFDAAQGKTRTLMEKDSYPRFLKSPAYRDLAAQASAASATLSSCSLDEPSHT
Target sequence (P09471 whole entry, looked up): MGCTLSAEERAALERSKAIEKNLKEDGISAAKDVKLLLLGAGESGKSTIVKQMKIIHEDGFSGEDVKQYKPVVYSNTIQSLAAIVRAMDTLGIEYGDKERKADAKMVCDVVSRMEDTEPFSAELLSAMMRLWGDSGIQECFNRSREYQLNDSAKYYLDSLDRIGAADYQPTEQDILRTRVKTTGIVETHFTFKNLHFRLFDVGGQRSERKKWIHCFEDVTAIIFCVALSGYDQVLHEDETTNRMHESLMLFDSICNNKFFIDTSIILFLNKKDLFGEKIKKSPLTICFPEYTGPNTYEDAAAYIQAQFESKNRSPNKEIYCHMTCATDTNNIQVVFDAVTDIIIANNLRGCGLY
HSV augment: increases HSV replication in cells; maximum fold increase; HSV replication augmentation in cells, fold increase; hit rate 0.005% among 220,000;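 active = peak rise of 1.5-fold or more in the series; tested in PC3 cells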;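 also: first round at 10 µM; read as green reporter fluorescence; hits show the peak of a series up to 25 µM; 1 = signal of infected wells without compound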
PKD1 kinase inh: inhibitors of human PKD1 kinase; AID 797; PKD1 kinase fluorescence polarization assay; hit rate 0.056% among 200,000; inhibition, %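 (about 10 µM by stock and volumes)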;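 active = inhibition of 50% or more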;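 also: controls were vehicle for no effect and a reference inhibitor for full effect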
INS promoter inh: TRM-6 insulin promoter activity inhibition; TRM-6 cells (human fetal islet line), insulin promoter-eGFP reporter, imaging; reporter expression induced with tamoxifen; inhibition, % at 2 µM; hit rate 0.9% among 130,000;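 active = inhibition above the mean plus 3 SD, with well images judged a real hit on visual review, cut at about 60% in these data, passing the limit was not always enough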
GALR2 ag: agonists of human galanin receptor 2 (GALR2); GALR2-expressing cells, agonist activation read-out; O43603; activation, %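 (tested at 5 µM)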; AID 803; hit rate 0.48% among 140,000;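 active = above mean plus 3 SD of all compounds, about 5% in these data, not always enough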;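 also: 0% = vehicle buffer wells and 100% = reference agonist at full effect; tested in CHO reporter cells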
Target sequence (O43603 whole entry, looked up): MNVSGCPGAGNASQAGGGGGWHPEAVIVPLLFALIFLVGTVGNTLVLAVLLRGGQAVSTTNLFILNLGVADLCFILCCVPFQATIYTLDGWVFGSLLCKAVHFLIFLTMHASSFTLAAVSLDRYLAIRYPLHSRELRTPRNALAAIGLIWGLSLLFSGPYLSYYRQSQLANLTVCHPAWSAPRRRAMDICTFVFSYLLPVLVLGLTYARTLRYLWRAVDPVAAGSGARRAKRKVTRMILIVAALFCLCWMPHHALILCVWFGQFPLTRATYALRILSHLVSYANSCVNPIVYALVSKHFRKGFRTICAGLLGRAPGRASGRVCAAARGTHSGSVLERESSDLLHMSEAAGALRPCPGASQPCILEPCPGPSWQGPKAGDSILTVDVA
INS promoter inh cell count: also measured in INS promoter inh; calls as there; normalized cell count, %; measured here: cell count, toxicity; reference of the scale not given here;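 cells exposed to compound for 48 h; stained nuclei by imaging scaled within each plate; lower means fewer cells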
HSV augment primary fold: second read-out of HSV augment, no call of its own (marks repeat the call); fold increase; compound at 10 µM; measured here: primary screen fold increase 10 uM; tested in PC3 cells;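 GFP signal in the first replicate; 1 = infected wells without compound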
Active calls of the source: *; i = inactive; / = no result given.

SMILES	RGS16-Gao HTS	HSV augment	HSV augment primary fold	PKD1 kinase inh	INS promoter inh	INS promoter inh cell count	GALR2 ag
CCS(=O)(=O)N1CCN(c2nc(-c3ccccc3)cs2)CC1	104	i	1.1	-4	/	/	-1.0
O=C(CN(CCc1ccccc1)S(=O)(=O)c1ccc(Br)cc1)N/N=C/c1ccccc1C(=O)O	103	i	1.1	0	-33	109	/
O=C(Nc1ccccn1)c1ccc(CN(c2ccccc2)S(=O)(=O)c2ccccc2)cc1	105	i	1.1	-4	/	/	/
CCOCCCn1c(SC(C(=O)Nc2cc(C)ccc2C)c2ccccc2)nnc1-c1ccc(Cl)cc1 (stereo unspecified)	101	i	0.96	-2	/	/	-1.0
O=C1CCC/C1=C/Nc1cccc(F)c1	104	i	0.98	/	/	/	/
CC(=O)CC1(O)C(=O)N(Cc2ccccc2)c2ccccc21 (stereo unspecified)	96	i	0.95	-5	-19	34	-1.0
Cc1ccc(Cl)cc1N1CCN(C(=O)COc2ccc(S(=O)(=O)NC(C)C)cc2)CC1	92	i	0.8	-2	/	/	-0.7
Cc1c(Cl)cccc1NC(=S)N(Cc1cccnc1)Cc1ccccc1Cl	104	i	0.84	3	/	/	/
COc1c(F)c(F)c(C(=O)O)c(Nc2cc(C)cc(C)c2)c1F	110	i	0.94	-1	-8	102	/
CCN1C(=O)c2ccc(C(=O)NCc3ccccc3)cc2C1=O	100	i	0.78	-9	-58	100	-2.2
CC1CCN(C(=O)CSc2nncn2C)CC1	99	i	0.95	0	-3	62	-3.4
CCCc1cc(C(=O)NC2CCCCC2)no1	98	i	0.83	1	/	/	-1.1
COCCCn1c(SCC(=O)NCc2ccccc2)nc2ccccc2c1=O	112	i	1.1	-4	-54	173	-1.6
CC1=NN(c2ccc(C)cc2C)C(=O)C1C(c1ccccc1O)C1C(=O)N(c2ccc(C)cc2C)N=C1C (stereo unspecified)	96	i	0.88	8	33	95	-0.7
COc1ccc(C(C(=O)NC2CCCC2)N(C(=O)c2snc(-c3ccc(F)cc3)c2N)c2ccc(OC)cc2)cc1 (stereo unspecified)	99	i	0.89	-5	46	126	-1.2
CC(=O)NC1CC2CCCC(C1)N2C(=O)Nc1ccc(Cl)c(C(F)(F)F)c1 (stereo unspecified)	97	i	1	11	/	/	0.2
O=C1CCC(C(=O)OC(C(=O)c2c[nH]c3ccccc23)c2ccccc2)=NN1 (stereo unspecified)	68	i	0.97	0	20	83	-1.1
CCNC(=S)N(Cc1c(C)noc1C)c1ccccc1	51	i	1	0	36	86	-0.7
Cc1nc(Nc2ccc3c(c2)OCO3)c2oc3ccccc3c2n1	109	i	0.84	-4	82*	140*	-0.3
CCN(C(=O)c1coc(=O)c(Br)c1)c1ccc2c(c1)OCO2	94	i	1.1	6	43	70	-1.0
COCCCNC(=O)c1ccc(CN2CCc3ccccc3C2)cc1	99	i	0.97	6	/	/	/
Cc1ccc(N2C(=O)NC(C(F)(F)F)(C(F)(F)F)C3=C2CC(C)(C)CC3=O)cc1	103	i	0.99	-5	19	160	-0.5
Cc1cccc(NC(=O)/C(C#N)=C\c2cc(C)n(-c3ccc(C(=O)O)cc3)c2C)c1	79	i	1.1	-3	-21	166	/
Cc1csc(NC(=O)CCCSc2nc3ccccc3s2)n1	83	i	0.96	-4	-56	157	0.5
O=C1CCC(C(=O)Nc2ccc(OC(F)F)cc2)N1 (stereo unspecified)	100	i	0.76	4	73*	73*	-1.9
CCn1c(C(=O)N2CCc3ccccc3C2)cc2sccc21	111	i	0.86	2	/	/	-3.9
Cc1ccc(NC(=O)c2cccs2)cc1NC(=O)c1cccnc1	98	i	0.9	1	/	/	/
Cc1nc(NC(=O)CSc2nc3cccnc3n2C2CCCCC2)sc1C	98	i	0.81	-7	27	108	-3.0
Cc1cc(CN2CCN(CCC#N)CC2)c(O)c(C2(C)CCCCC2)c1	104	i	1.1	1	42	163	-0.9
COC(=O)CCc1c(C)c(C(=O)c2cc(F)c(F)c(F)c2F)c2ccccn12	101	i	1.1	-5	/	/	/
CC(C)OCC(O)Cn1c(N2CCCC2)nc2c1c(=O)[nH]c(=O)n2C (stereo unspecified)	111	i	0.82	-9	14	105	-0.5
Cc1ccc(C(C)C)cc1NC(=O)Nc1ccc([N+](=O)[O-])cc1	102	i	0.82	/	/	/	/
Cc1ccnc(SCc2cc(=O)c(OC(=O)c3ccc(S(=O)(=O)N(C)C)cc3)co2)n1	103	i	1.2	-4	52	70	-3.1
CC(=O)N1CCn2c3c(c4cc(C)ccc42)CCCC31 (stereo unspecified)	101	i	1.1	-2	21	75	/
CCOc1ccc(C(=O)NC(=S)Nc2ccccc2N2CCCCC2)cc1[N+](=O)[O-]	96	i	0.99	-11	24	161	0.5
Cn1cc(CN2CCCCC2c2ccccn2)c(-c2ccc3c(c2)OCCO3)n1 (stereo unspecified)	110	i	0.95	-5	57	88	/
Cc1cccc(-n2c(SCc3cc(=O)n4ccsc4n3)nc3ccccc3c2=O)c1	100	i	1.1	-6	-22	45	-1.6
COc1ccc(-n2ncc(S(=O)(=O)c3ccccc3)c2-c2ccc(Cl)cc2)cc1	110	i	1.1	-2	-37	112	-2.2
COc1ccccc1CNC(=O)CCC(=O)Nc1nnc(C(C)C)s1	107	i	1.1	-3	6	102	-1.6
CCOC(=O)N1CCC(NC(=O)c2ccc3c(Cl)c4c(nc3c2)CCCC4)CC1	91	i	0.99	-8	-20	47	0.8
O=C(C/C=N\OCc1ccc([N+](=O)[O-])cc1)Nc1ccc(Br)cc1	101	i	1.1	2	15	86	/
Cc1cc(C(=O)N/N=C/c2cccc(Cl)c2Cl)no1	99	i	1	0	-40	110	-1.5
CC(=O)N1N=C(c2ccc(Cl)cc2)OC1c1ccc(C(C)C)cc1 (stereo unspecified)	103	i	0.78	-8	11	91	0.6
O=C(Cn1cnc2ccccc21)NC(c1ccccc1)c1ccccc1	103	i	0.98	-15	8	144	-1.6
CCc1ccc2nc(N3CCN(C)CC3)c(C#N)cc2c1	99	i	0.83	-11	/	/	-0.8
Cc1ccc(NC(=O)Cn2cc(S(=O)(=O)c3ccc(F)cc3)c(=O)c3cc(F)ccc32)cc1	71	/	/	8	-22	77	0.2
O=C(CSc1nncc(=O)[nH]1)NCc1ccccc1	103	i	0.98	3	/	/	/
CCc1ccccc1NC(=O)c1ccc(NS(C)(=O)=O)cc1	103	i	0.96	-9	/	/	/
C=CCNC(=O)c1ccccc1NC(=O)c1ccccc1C	94	i	1	-6	28	161	-2.9
Cc1cccc(NC(=O)CN2C(=O)N/C(=C/c3ccc(-c4cccc(C(=O)O)c4C)o3)C2=O)c1	103	i	0.92	-5	/	/	/
O=[N+]([O-])c1cccc(-c2nc(Oc3ccc(Cl)cc3)c3ccccc3n2)c1	106	i	0.91	-5	-8	116	-0.1
O=C(Cn1cc(C(F)(F)F)ccc1=O)NC(c1ccccc1)c1ccccc1	108	i	1.1	8	-13	101	0.3
Cc1cccc(CSc2nnc(NC(=O)c3ccco3)s2)c1	106	i	0.86	0	-34	165	-2.1
CC(C)Sc1nc2ccccc2c(=O)[nH]1	109	i	0.76	-1	-75	77	0.2
Cc1cc(NC(=O)c2cc3nc(C4CC4)cc(C(F)(F)F)n3n2)no1	101	i	0.93	5	-11	197	0.8
CC(C)(C)c1ccc(C(CC(=O)O)NC(=O)CCCc2ccccc2)cc1 (stereo unspecified)	98	i	0.94	5	/	/	/
COc1ccccc1CN1CCNC(=O)C1CC(=O)NC1Cc2ccccc2C1 (stereo unspecified)	105	i	1.1	5	/	/	/
CC(C)OC(=O)CSc1n[nH]c(-c2cccnc2)n1	98	i	0.98	18	/	/	-0.3
COc1ccc(NCC(=O)N/N=C/C(C)c2ccccc2)cc1 (stereo unspecified)	114	i	0.88	-5	9	174	/
COc1cc(C)nc2nc(SCc3ccccc3)nn12	99	/	/	3	-21	134	-2.9

3 compounds out of the list above, sorted by the number in HSV augment primary fold, low to high:
| Compound | HSV augment primary fold |
| --- | --- |
| CC(C)OCC(O)Cn1c(N2CCCC2)nc2c1c(=O)[nH]c(=O)n2C (stereo unspecified) | 0.82 |
| Cc1cccc(CSc2nnc(NC(=O)c3ccco3)s2)c1 | 0.86 |
| COc1ccc(-n2ncc(S(=O)(=O)c3ccccc3)c2-c2ccc(Cl)cc2)cc1 | 1.1 |

(listing goes on)
SMILES	RGS16-Gao HTS	HSV augment	HSV augment primary fold	PKD1 kinase inh	INS promoter inh	INS promoter inh cell count	GALR2 ag
CCN(CC)S(=O)(=O)c1ccc(N2CCOCC2)c(NC(=O)C2CCCC2)c1	98	i	1	2	11	124	-1.2
CC(C)(C)n1nnc(CCc2nnn(C(C)(C)C)n2)n1	103	i	0.85	-1	22	142	2.2
O=S(=O)(Nc1cccc(CCc2ccccn2)c1)c1ccc2ccccc2c1	95	/	/	-6	-7	76	-1.3
COCCNC(=O)c1onc(CSc2ccc(C(C)C)cc2)c1C(=O)O	104	i	0.99	-5	-24	155	-2.5
COCCNS(=O)(=O)c1ccc(C2CNC(=O)C2)cc1 (stereo unspecified)	106	i	0.93	13	/	/	-1.3
CC1=C(C(=O)Nc2ccccc2)C(c2ccc(Cl)cc2)n2c(s/c(=C/c3cccc(OCC(=O)O)c3)c2=O)=N1 (stereo unspecified)	101	i	0.86	-4	/	/	/
Cc1ccc(S(=O)(=O)N2CCN(C(=O)Cc3ccccc3)CC2)cc1	96	i	0.98	-3	-7	91	0.1
CC(C)(C)OC(=O)N[C@@H](Cc1ccccc1)c1nnc(SCC(=O)O)o1	100	i	0.99	4	36	95	-0.4
CC(C)(C)N=Cc1cc(-c2ccccc2)sc1O	11	i	0.81	0	/	/	-3.4
C=CCn1c(-c2ccccc2)nc(=S)c2c1CCCC2	102	i	0.94	/	/	/	/
Cc1cc2c(ncn2Cc2ccccc2)c(N)c1C	103	i	1	1	/	/	/
COCCN(C(=S)Nc1cccc(Cl)c1C)C(C)c1ccco1 (stereo unspecified)	105	i	1	/	/	/	/
Cc1ccc(N(C(=O)C2CCCC2)C2C=CS(=O)(=O)C2)cc1C (stereo unspecified)	90	i	0.96	-3	40	147	-0.8
O=C(c1cccn2c(=O)c3ccccc3nc12)N1CCN(c2ccccn2)CC1	101	i	1	-15	-118	96	1.5
Cc1nc(NC(=S)NC(=O)COc2ccc(Cl)cc2)ccc1Br	109	i	1.1	-1	-6	134	0.7
c1coc(-c2nnc3sc(Cc4cccs4)nn23)c1	97	i	0.92	-9	13	131	-1.5
CC(C)CCOP(=O)(c1ccc(N(C)C)cc1)C(O)c1ccccc1F (stereo unspecified)	103	i	0.9	-4	-117	52	0.8
CCOP(=O)(OCC)C(NC(=O)Nc1ccc(Cl)c(Cl)c1)c1ccccc1 (stereo unspecified)	200	i	0.81	-3	18	105	-0.5
COc1cc(/C=N/NC(=O)CC2(C)OCCO2)cc(Br)c1O	125	i	0.92	-2	29	76	/
Cc1ccc(-n2nnnc2-c2cnc3ccc(Cl)cc3c2-c2ccccc2)cc1	98	i	0.76	-9	22	91	-2.0

Copied from the list:
Under PKD1 kinase inh, O=C(c1cccn2c(=O)c3ccccc3nc12)N1CCN(c2ccccn2)CC1 is entered as -15
Under INS promoter inh, COCCNC(=O)c1onc(CSc2ccc(C(C)C)cc2)c1C(=O)O is entered as -24
Under INS promoter inh, CCOP(=O)(OCC)C(NC(=O)Nc1ccc(Cl)c(Cl)c1)c1ccccc1 (stereo unspecified) is entered as 18
Under INS promoter inh, CC(C)CCOP(=O)(c1ccc(N(C)C)cc1)C(O)c1ccccc1F (stereo unspecified) is entered as -117
Under RGS16-Gao HTS, C=CCn1c(-c2ccccc2)nc(=S)c2c1CCCC2 is entered as 102
Under HSV augment primary fold, Cc1cc2c(ncn2Cc2ccccc2)c(N)c1C is entered as 1

Gathered by group, the compounds so far with a cyano group.
SMILES	RGS16-Gao HTS	HSV augment	HSV augment primary fold	PKD1 kinase inh	INS promoter inh	INS promoter inh cell count	GALR2 ag
Cc1cccc(NC(=O)/C(C#N)=C\c2cc(C)n(-c3ccc(C(=O)O)cc3)c2C)c1	79	i	1.1	-3	-21	166	/
Cc1cc(CN2CCN(CCC#N)CC2)c(O)c(C2(C)CCCCC2)c1	104	i	1.1	1	42	163	-0.9
CCc1ccc2nc(N3CCN(C)CC3)c(C#N)cc2c1	99	i	0.83	-11	/	/	-0.8

Following part:
SMILES	RGS16-Gao HTS	HSV augment	HSV augment primary fold	PKD1 kinase inh	INS promoter inh	INS promoter inh cell count	GALR2 ag
CNC(=O)c1ccccc1NC(=O)C1CC(=O)N(c2ccc(OC)cc2)C1 (stereo unspecified)	102	i	0.97	15	18	154	/
CCCc1cc(=O)n2[nH]c(NCc3ccccc3Cl)nc2n1	98	i	0.83	12	/	/	-1.0
NC(=O)[C@@H]1CCCNc2c(I)cc([N+](=O)[O-])cc2C(=O)N[C@@H](Cc2ccccc2)C(=O)N[C@@H](Cc2cnc[nH]2)C(=O)N1	105	i	1.1	-2	-285	80	-1.3
COc1ccc(NC(C)=O)cc1NC(=O)CSc1nnc(-c2ccccc2)n1N	99	/	/	-6	59	113	-1.4

Screens as filed in PubChem BioAssay.
